Screening results deposited in PubChem BioAssay by Johns Hopkins Ion Channel Center.
KCNQ2 inh: KCNQ2 potassium channel inhibitors, primary screen, cell-based, CHO-K1, FluxOR thallium flux, B-score (AID 2156); O88943; 20 min; stronger effect = lower value; only compounds with negative scores are shown here; some inactives read as strong as hits; B-score at 10 µM; 310,000 compounds, 1.1% hits;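 active means fluorescence ratio B-score at most minus 3 library SDs, with starting brightness B-score within 2 library SDs, cut at about -5.5 in these data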
KCNQ2 inh baseline: further read-out of KCNQ2 inh, marked with its call; B-score; measured here: initial fluorescence intensity artifact check;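 brightness before thallium and not channel activity; 0 = typical well and far values either way flag optical interference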
An asterisk follows results filed as active; i = inactive.

SMILES | KCNQ2 inh | KCNQ2 inh baseline
CC(=O)c1cc2c(cc1N(C(=O)c1ccco1)C(C(=O)NC1CCCC1)c1ccccc1F)OCO2 (stereo unspecified) | i | -0.83
COc1ccc(C(=O)N2CCC3(CC2)NCCc2[nH]cnc23)cc1OC | i | 1.6
O=C(Nc1cccnc1)c1ccc([N+](=O)[O-])o1 | i | -0.45
Cc1ccc(S(=O)(=O)CNC(=S)c2ccc3ccccc3c2)cc1 | i | -0.99
CN(CC1CCCN(CCc2ccc(Cl)cc2)C1)C(=O)c1ccco1 (stereo unspecified) | i | 0.29
O=C(CN1CCc2ccccc2C1)Nc1ccccc1N1CCCCCC1 | i | -1.6
CC1=NN(c2ccc(C)c(C)c2)C(=O)C1C(c1cccc(O)c1)C1C(=O)N(c2ccc(C)c(C)c2)N=C1C (stereo unspecified) | i | 0.02
COc1nc(C)ccc1-c1noc(-c2ccncc2)n1 | i | 1
CCOC(=O)c1c(C)oc2cc(Sc3ccccc3)c(O)c(O)c12 | i | 1.4
CC(C)C(NC(=O)c1ccccc1NC(=O)c1ccco1)C(=O)NNC(=O)c1ccncc1 (stereo unspecified) | i | 0.61
CCCn1c(NC(=O)CCS(=O)(=O)c2ccc(C)cc2)nc2ccccc21 | i | 0.67
CCN(CC)C(=O)CNC(=O)c1nn(-c2ccc(OC)c(Cl)c2)c(=O)c2ccccc12 | i | -0.06
CCOc1ccccc1OCCCC(=O)OCC(=O)Nc1cccc(Cl)c1 | i | -0.74
O=C(NC1CCCC1)c1ccc(CS(=O)Cc2ccc(Cl)cc2)o1 (stereo unspecified) | i | 0.49
COc1ccccc1CCC(=O)N(Cc1ccccc1)c1c(N)n(Cc2ccccc2)c(=O)[nH]c1=O | i | -0.62
CC(=Nc1ccccc1)c1sc2ccccc2c1O | i | 0.67
CCOc1cc(/C=N/NC(=O)C2CCCC2)ccc1OC(C)C | i | -0.04
CCC(=O)N1CCN(c2ccc(NC(=O)COc3cccc(C)c3C)cc2)CC1 | i | 0.84
O=C(COC(=O)C1CCN(S(=O)(=O)c2ccc3c(c2)OCCO3)CC1)Nc1ccccc1OC(F)F | i | -0.56
O=C(Cc1ccc(S(=O)(=O)N2CCOCC2)s1)NCCOc1ccccc1 | i | 1.8

Compounds shown so far that have a Cl atom (four):
SMILES | KCNQ2 inh | KCNQ2 inh baseline
CN(CC1CCCN(CCc2ccc(Cl)cc2)C1)C(=O)c1ccco1 (stereo unspecified) | i | 0.29
CCN(CC)C(=O)CNC(=O)c1nn(-c2ccc(OC)c(Cl)c2)c(=O)c2ccccc12 | i | -0.06
CCOc1ccccc1OCCCC(=O)OCC(=O)Nc1cccc(Cl)c1 | i | -0.74
O=C(NC1CCCC1)c1ccc(CS(=O)Cc2ccc(Cl)cc2)o1 (stereo unspecified) | i | 0.49

Following part
SMILES | KCNQ2 inh | KCNQ2 inh baseline
COc1cc(/C=N/O)ccc1OCc1ccccc1Cl | i | 0.19
COC(=O)c1[nH]c2cc(C)ccc2c1NC(=O)CN1CCN(c2ccccc2OC)CC1 | i | -2.5
CC(C)c1ccc(NC2CCCN(C(=O)c3ccoc3)C2)cc1 (stereo unspecified) | i | -1.1
COc1ccc(CN2CCN(Cc3cc(=O)oc4cc(C)ccc34)CC2)c(OC)c1OC | i | 2.4
COC(=O)Cc1cc(=O)[nH]c(/N=C(\N)Nc2cccc(C)c2)n1 | i | 1
COc1ccc(OC)c(-c2cc(C(=O)N3CCCc4ccccc43)no2)c1 | i | -0.39
O=C(O)CCN1CCc2ccccc2C1c1ccncc1 (stereo unspecified) | i | 2.4
COc1ccc(C(=O)Nc2nnc(SCC(=O)NCC3CCCO3)s2)cc1OC (stereo unspecified) | i | 1.7
CC(C)c1ccc(NC(=O)C2CCN(C(=O)[C@@H]3Cc4ccccc4CN3)CC2)cc1 | i | -0.18
Cc1cc(Br)ccc1OCC(=O)N1CCCCCC1 | i | -0.08
O=C(CN1CCCCC1)N/N=C/c1ccccc1OCc1ccccc1 | i | 0.7
CC1CN(C)C(C)C/C1=N\Oc1ccc([N+](=O)[O-])cc1 (stereo unspecified) | i | 0.55
CCOc1ccc(OCCCCn2cnc3ccccc3c2=O)cc1 | i | -0.32
O=CN1CCc2scc[n+]2-c2ccccc21 | i | 0.11
CCn1c(=O)n(CC)c2cc(N3CCCC3)c(NC(=O)c3ccc(C)cc3)cc21 | i | 0.41
CCN(CC)c1ccc(C2C3CCCCC3(O)CCN2CC(=O)N2CCCCC2)cc1 (stereo unspecified) | i | -0.11
CCOc1ccccc1OCCCC(=O)N1CCN(S(=O)(=O)c2ccc(C)cc2)CC1 | i | -2.6
Cc1ccc(P(=O)(CSC(=N)N)c2ccc(C)cc2)cc1 | i | 0.4
O=C(Nc1ccccc1)C12CC3CC(C1)CC(n1cnc([N+](=O)[O-])n1)(C3)C2 | i | -0.02
O=C(NC(Nc1nc2ccccc2s1)(C(F)(F)F)C(F)(F)F)c1ccccc1 | i | -0.01

Reprinted from above (22 entries):
SMILES | KCNQ2 inh | KCNQ2 inh baseline
CC(=O)c1cc2c(cc1N(C(=O)c1ccco1)C(C(=O)NC1CCCC1)c1ccccc1F)OCO2 (stereo unspecified) | i | -0.83
COc1ccc(C(=O)N2CCC3(CC2)NCCc2[nH]cnc23)cc1OC | i | 1.6
O=C(Nc1cccnc1)c1ccc([N+](=O)[O-])o1 | i | -0.45
Cc1ccc(S(=O)(=O)CNC(=S)c2ccc3ccccc3c2)cc1 | i | -0.99
CN(CC1CCCN(CCc2ccc(Cl)cc2)C1)C(=O)c1ccco1 (stereo unspecified) | i | 0.29
O=C(CN1CCc2ccccc2C1)Nc1ccccc1N1CCCCCC1 | i | -1.6
CC1=NN(c2ccc(C)c(C)c2)C(=O)C1C(c1cccc(O)c1)C1C(=O)N(c2ccc(C)c(C)c2)N=C1C (stereo unspecified) | i | 0.02
COc1nc(C)ccc1-c1noc(-c2ccncc2)n1 | i | 1
CCOC(=O)c1c(C)oc2cc(Sc3ccccc3)c(O)c(O)c12 | i | 1.4
CC(C)C(NC(=O)c1ccccc1NC(=O)c1ccco1)C(=O)NNC(=O)c1ccncc1 (stereo unspecified) | i | 0.61
CCCn1c(NC(=O)CCS(=O)(=O)c2ccc(C)cc2)nc2ccccc21 | i | 0.67
CCN(CC)C(=O)CNC(=O)c1nn(-c2ccc(OC)c(Cl)c2)c(=O)c2ccccc12 | i | -0.06
CCOc1ccccc1OCCCC(=O)OCC(=O)Nc1cccc(Cl)c1 | i | -0.74
O=C(NC1CCCC1)c1ccc(CS(=O)Cc2ccc(Cl)cc2)o1 (stereo unspecified) | i | 0.49
COc1ccccc1CCC(=O)N(Cc1ccccc1)c1c(N)n(Cc2ccccc2)c(=O)[nH]c1=O | i | -0.62
CC(=Nc1ccccc1)c1sc2ccccc2c1O | i | 0.67
CCOc1cc(/C=N/NC(=O)C2CCCC2)ccc1OC(C)C | i | -0.04
CCC(=O)N1CCN(c2ccc(NC(=O)COc3cccc(C)c3C)cc2)CC1 | i | 0.84
O=C(COC(=O)C1CCN(S(=O)(=O)c2ccc3c(c2)OCCO3)CC1)Nc1ccccc1OC(F)F | i | -0.56
O=C(Cc1ccc(S(=O)(=O)N2CCOCC2)s1)NCCOc1ccccc1 | i | 1.8
COc1cc(/C=N/O)ccc1OCc1ccccc1Cl | i | 0.19
COC(=O)c1[nH]c2cc(C)ccc2c1NC(=O)CN1CCN(c2ccccc2OC)CC1 | i | -2.5

The listing continues.
SMILES | KCNQ2 inh | KCNQ2 inh baseline
Cc1ccc(OCCC(=O)Nc2c(C)n(C)n(-c3ccccc3)c2=O)cc1 | i | 1.3
CN(C)CCCN(C(=O)c1ccc(S(=O)(=O)N(C)Cc2ccccc2)cc1)c1nc2c(F)cccc2s1 | i | -0.53
S=c1[nH]nc(-c2cc(-c3ccccc3)n[nH]2)n1/N=C/c1ccc(Br)s1 | i | -0.02
O=c1c2ccccc2ncn1Cc1ccco1 | i | 2.5
CC1CCN(C(=O)C(C)Sc2nc(-c3ccccc3)cc(C(F)(F)F)n2)CC1 (stereo unspecified) | i | -1.1
COc1ccc2sc(N(CCCN(C)C)C(=O)c3ccc(C(=O)c4ccccc4)cc3)nc2c1 | i | -2
CCCc1cc(=O)oc2cc(C)cc(OCc3nn[nH]n3)c12 | i | 1.7
O=C(COC(=O)c1ccccc1N1C(=O)C2C3CCC(C3)C2C1=O)c1ccccc1 (stereo unspecified) | i | 0.35
CC1CCN(CC(=O)c2c[nH]c3ccccc23)CC1 | i | 1.4
O=S(=O)(c1ccc(Cl)cc1Br)N1CCCCC1 | i | 1.1
Cn1c(=O)c2c(nc(SCC(=O)Nc3ccccc3N3CCCCC3)n2C)n(C)c1=O | i | 0.14
CC(C)C(NC(=O)C1CCCCC1)C(=O)Nc1ccc2c(c1)OCCO2 (stereo unspecified) | i | 0.1
CCOC(=O)c1c(NC(=O)c2ccccc2N(C)S(=O)(=O)c2ccccc2)sc2c1CCCC2 | i | -1.8
CCOCCc1nn2c(=O)cc(CSCC(=O)Nc3ccc(OC)cc3)nc2s1 | i | 1
COc1ccc(CCNC(=O)Cn2cnc3ccccc3c2=O)cc1OC | i | -1.6
Cc1ccc(NC(=O)COC(=O)C(NS(=O)(=O)c2ccc(Cl)cc2)C(C)O)c(Br)c1 (stereo unspecified) | i | 0.89
Cc1c(OCC(=O)NC2CC(C)(C)NC(C)(C)C2)ccc2c3c(c(=O)oc12)CCC3 | i | -0.3
O=S(=O)(NC(=NCCc1ccc(Cl)cc1)c1ccccc1Cl)c1cccs1 | i | 0.04
Nc1ccccc1SCc1c(Cl)cccc1Cl | i | 1.9
Cc1ccc(NC(=S)NCCc2c[nH]c3ccccc23)cc1 | i | 0.95
CC1=NC(Nc2nc(C)c3ccccc3n2)=NC(C)(C)C1 | i | -1.1
CC1(C)SC2c3ccccc3C(=O)N2[C@@H]1C(=O)NCCCN1CCOCC1 (stereo partly specified) | i | 2.1

The list is partial; rates above refer to the full screens.
